# Bioassay records as filed in PubChem.
# Biofilm kill mix = mixture kills Candida albicans biofilm cells | C. albicans biofilm persisters + clotrimazole, fluorescence viability; primary screen in compound mixtures of four per well | inhibition, % at 7.6 µM | 0.02% of 120,000 active;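 active = inhibition above 30.3% in the primary screen of four-compound pools, then above 30% when the compound was retested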;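 also: compounds exposed to preformed 24 h biofilms for 48 h; the number belongs to the whole pool; some results filed as inactive read as strong as hits; inactives centre near 12; 0% = biofilm with clotrimazole alone and 100% = kill control; retested singly at about 60 µM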
#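 Incubation: 24 h biofilm formation, then 48 h compound exposure, 37 °C | Material: C. albicans biofilms | Buffer or medium: RPMI/MOPS medium, pH 7.0 | Measured by: 2-h Alamar Blue fluorescence, 535/590 nm excitation/emission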
# * = called active by the depositor. An excerpt; rates above refer to the full screens.
Molecule	Biofilm kill mix
O=C(CN1C(=O)CC(c2ccccc2)S(=O)(=O)c2ccccc21)N1CCCC1 (configuration not stated)	12
Cn1cnnc1Sc1ccc(/C=C/C(=O)c2ccc(O)cc2)cc1[N+](=O)[O-]	16
COc1ccccc1C1C=C(c2ccccc2)Nc2nnnn21 (configuration not stated)	1
CC(=O)N1N=C(c2ccncc2)CC1c1ccccc1O (configuration not stated)	23
O=C(O)c1ccc(/C=N/NC(=O)C2CC2(c2ccccc2)c2ccccc2)cc1 (configuration not stated)	13
Cc1ccc(C2CC(=O)Oc3cc(O)ccc32)cc1 (configuration not stated)	15
O=[N+]([O-])c1cc(-c2cnc3ccccc3n2)ccc1Oc1ccc(Cl)cc1	5
O=C(NN1C(=O)c2ccccc2C1=O)c1ccc2c(c1)C(=O)N(CC1CCCO1)C2=O (configuration not stated)	25
O=C(NC(=S)NNC(=O)c1cnccn1)c1ccc(F)cc1	5
Cc1cc(C)c(S(C)(=O)=O)c(Oc2cccc(C(F)(F)F)c2)n1	10
CC(=O)O[C@@H]1[C@@H](OC(C)=O)[C@H](n2ccc3cc([N+](=O)[O-])ccc32)OC[C@@H]1OC(C)=O	21
O=C1C(CSCc2ccccc2)NC(=S)N1c1ccccc1 (configuration not stated)	21
O=Cc1cn(CC(=O)N2CCCCC2)c2ccccc12	12
Cc1ccccc1OCCSc1nc(N(C)C)nc(N(C)C)n1	19
Cn1cc(Cl)c(-c2n[nH]c(=S)n2C2CCCCC2)n1	10
Cc1cccnc1NC(=O)CSc1nnc(COc2ccc(C(C)C)cc2)n1C	-3
CCc1cc2c(-n3nc(C)cc3C)ncnc2s1	8
O=C(NC(=S)Nc1cccc(NC(=O)c2ccccc2Cl)c1)c1cccs1	-2
O=C(COc1ccc(Cl)cc1Cl)NNC(=S)NC(=O)c1ccco1	29
O=C(Cc1ccc(-c2ccccc2)cc1)NCc1cccnc1	30
Cc1ccc2[nH]nc(C(=O)N3CCCC(C(=O)c4ccc(Cl)cc4)C3)c2c1 (configuration not stated)	8
COc1ccc(OCC(O)CNC(=O)c2ccc(OC)cc2)cc1 (configuration not stated)	16
C=CCNC(=S)Nc1ccc(Br)cc1F	14
Cc1ccc(/C(N)=N/OC(=O)c2cccs2)cc1	10
S=c1[nH]nc(-c2ccco2)n1/N=C/C(Cl)=C/c1ccccc1	7
CCC(NC(=O)CCCc1ccccc1)c1ccccc1 (configuration not stated)	13
COc1cccc(-c2ccc(SCC(=O)N3CCN(c4ccccc4)CC3)nn2)c1	24
CCCNC(=O)COC(=O)c1ccc(N2CCCC2)c([N+](=O)[O-])c1	6
Cc1ccc(CS(=O)(=O)c2ncn[nH]2)cc1	16
CCc1ccc(-n2c(=O)c3c(C)c(C(=O)N(C)C)sc3n(CC(=O)NCC3CCCO3)c2=O)cc1 (configuration not stated)	3
COC(=O)C(=Nc1ccccc1)/C(C(=O)C(=O)N(C)c1ccccc1)=C(\O)c1ccccc1	8
COC(=O)c1ccc(N=Cc2c(C(F)(F)F)[nH][nH]c2=O)cc1	14
COc1ccccc1NC(=O)NCC(=O)Nc1c(C)cccc1C	34
COc1ccc(S(N)(=O)=O)cc1C(=O)NCCCN1CCN(c2ccccc2OC)CC1	5
CC(Sc1nnc(-c2ccccc2)c(-c2ccccc2)n1)C(=O)N1CCc2ccccc21 (configuration not stated)	-3
Clc1ccccc1CN1CCN(/N=C/C=C\c2ccco2)CC1	16
CCOC(=O)c1cnc2c(cnn2C)c1Cl	18
N=C1/C(=C\c2ccc(SCc3ccccc3)o2)C(=O)N=C2SC(CC(=O)N3CCOCC3)=NN12	8
CCCCC(CC)C(=O)Nc1ccc(S(=O)(=O)Nc2nccs2)cc1 (configuration not stated)	18
COc1ccc(OC)c(CC(NC(C)=O)C(=O)NC2CCN(c3nc(OC)nc(OC)n3)CC2)c1 (configuration not stated)	16
COC(=O)c1cc(NC(=O)CSC2=NCCS2)cc(C(=O)OC)c1	19
CCn1c2ccccc2c2cc(NC(=O)CC(C)=O)ccc21	7
CCOc1cc(C2C3=C(CCCC3=O)N(CCC(=O)O)C3=C2C(=O)CCC3)ccc1OS(=O)(=O)c1ccc(C)cc1	11
NC(=O)c1ccc[n+](Cc2cccc3ccccc23)c1	17
Nc1nc(N)c2cc(Sc3ccc4ccccc4c3)ccc2n1	8
O=C(Nc1cccc(-c2csc(Nc3cccc(C(F)(F)F)c3)n2)c1)c1cc([N+](=O)[O-])cc(C(F)(F)F)c1	15
CCCCCCn1c(SCCOC)nc2c1c(=O)[nH]c(=O)n2C	15
Cc1ccc(CN2C(=O)CNC2=S)cc1	22
COC(=O)COc1cccc(NC(=O)c2cc(OC)cc(OC)c2)c1	11
Cc1ccc(OCCNC(=O)Cn2cnc3c(=O)n(C)c(=O)n(C)c32)cc1C	6

# Overlap with the part before: three entries; new compounds follow.
Molecule	Biofilm kill mix
Cc1ccc(CN2C(=O)CNC2=S)cc1	22
COC(=O)COc1cccc(NC(=O)c2cc(OC)cc(OC)c2)c1	11
Cc1ccc(OCCNC(=O)Cn2cnc3c(=O)n(C)c(=O)n(C)c32)cc1C	6
COc1ccccc1/C=C/C1(C(=O)NC2CCCC2)CC(=O)N1c1ccccc1 (configuration not stated)	10
O=C(NCc1ccncc1)c1cc(-c2ccc(Cl)cc2)oc1C(F)(F)F	23
CCOc1ccc(-c2c(C(=O)N/N=C/c3ccccc3)nnn2-c2nonc2N)cc1	13
Cc1cnc(NC(=O)Cn2cnc3c2c(=O)n(C)c(=O)n3C)s1	13
CN(Cc1ccsc1)C(=O)CCc1nnc(CCCc2ccccc2)o1	1
O=C(CC12CC3CC(CC(C3)C1)C2)NCC(c1ccc(F)cc1)N1CCOCC1 (configuration not stated)	9
COc1ccc(CCNc2ncnc3cc(OC)c(OC)cc23)cc1OC	8
Cc1cc(C)cc(OCC(=O)N/N=C/c2ccco2)c1	10
O=c1cc(O)c2c(=O)n(-c3ccccc3)c3c(c2o1)CCCCCC3	3
NS(=O)(=O)c1ccc(NC(=O)COC(=O)c2ccco2)cc1	4
Cc1ccc(C(=O)N/C(=C/c2cccc([N+](=O)[O-])c2)C(=O)NCC2CCCO2)cc1 (configuration not stated)	8
O=c1c2ccc(Cl)cc2[nH]c(=S)n1CCCN1CCOCC1	14
CCOc1ccc(C(C)NC(=S)NC2CCCCC2)cc1OCC (configuration not stated)	10
COc1ccc(CC(=O)Nc2cccc(SC)c2)cc1	7
O=C(/C=C/Nc1ccc(S(=O)(=O)Nc2ncccn2)cc1)c1ccc(Cl)c(Cl)c1	14
Cc1ccc(SCc2cn3cc(Cl)ccc3n2)cc1	23
COc1ccc(NC(=O)CSc2nnc(Cn3cnc4ccccc43)o2)cc1	9
O=C(O)CC1C(=O)NCCN1Cc1cccs1 (configuration not stated)	5
CC(C)N(Cc1nc(-c2ccccc2)no1)C(=O)C(Cl)(Cl)Cl	15
Cc1cnc(NC(=O)c2cc3c(C)nn(Cc4ccccc4Cl)c3s2)s1	14
Cc1cc(C)nc(NS(=O)(=O)c2ccc(N)cc2)n1	9
CN(CCC#N)C(=O)COc1ccc(Br)cc1Cl	9
CC(=O)OCCNc1cc(Sc2nc3ccccc3[nH]2)c2nonc2c1[N+](=O)[O-]	3
O=C(O)Cn1cc(/C=C2\SC(=O)N(c3ccccc3)C2=O)c2ccccc21	24
CCOc1ccc2c(c1)ncn2Cc1ccccc1	-8

# (listing goes on)
smiles,Biofilm kill mix
CCC(=O)Nc1sc(C(=O)Nc2ccccc2)c(C)c1C(=O)OC,9
CCN(CC)CCSc1nc2ccccc2c(=S)n1-c1ccccc1,9
Cc1nnc2nc(-c3ccccc3)nc(-c3ccccc3)n12,32
CCOCCCNC(=O)C(c1ccc(OC)cc1)N(Cc1cccs1)C(=O)c1ccccc1O (configuration not stated),14
CCN(c1ccccc1)S(=O)(=O)c1ccc(Cl)c(NC(=O)CSc2nnc(C)s2)c1,24
O=C1NC(=S)N/C1=C\c1ccc(N2CCOCC2)cc1,-3
CCOc1ccc(Cl)cc1/C=N/NC(=O)CNC(=O)c1ccccc1,11
c1cncc(-c2ccnc3ncnn23)c1,17
Cc1ccc(N2C(=O)C(Cl)=C(N3CCOCC3)C2=O)cc1Cl,8
FC(F)(F)c1cccc(OCc2nnc3n2CCC3)c1,4
O=C(Cn1cnc2ccccc2c1=O)c1ccccc1,11
CCCCSCc1ccc(C(=O)O)o1,-7
CS/C(Nc1cc(Cl)ccc1Cl)=C(/C#N)C(=O)c1ccco1,23
CC(=O)NC(=O)COC(=O)c1ccc2ncsc2c1,8
O=C(Cc1ccccc1)NNC1CC(=O)N(c2ccc(Br)cc2)C1=O (configuration not stated),19

# 4 compounds from above, sorted by count of non-hydrogen atoms, highest first.
smiles,Biofilm kill mix
Cc1ccc(C(=O)N/C(=C/c2cccc([N+](=O)[O-])c2)C(=O)NCC2CCCO2)cc1 (configuration not stated),8
O=C(CC12CC3CC(CC(C3)C1)C2)NCC(c1ccc(F)cc1)N1CCOCC1 (configuration not stated),9
Cc1ccc2[nH]nc(C(=O)N3CCCC(C(=O)c4ccc(Cl)cc4)C3)c2c1 (configuration not stated),8
CCCCCCn1c(SCCOC)nc2c1c(=O)[nH]c(=O)n2C,15

# Later entries:
smiles,Biofilm kill mix
O=C(N/N=C/c1ccccc1)NC1CCCCC1,20
COc1ccc(CN2CCN(S(=O)(=O)c3ccc(NC(C)=O)cc3)CC2)cc1,19
CC1CN(C(=O)c2ccc(Oc3ccccc3)cc2)CC(C)O1 (configuration not stated),17
Cc1cc(N)n(Cc2cccs2)n1,27
COC(=O)/C=C1\S/C(=N/N=C/c2ccccc2)NC1=O,13
CCN(Cc1ccncc1)C(=O)c1ccccc1NS(=O)(=O)c1ccc(Br)cc1,26
COc1cc(NC(=O)c2ccccc2C)c(OC)cc1NC(=O)CN1CCOCC1,17
Cc1cccc(N2C(=O)CN(Cc3sccc3C)C2=S)c1,8
O=C(CCN1CCOCC1)NNC(=S)NC(=O)c1ccccc1,17
CCC(CC)C(=O)Nc1ccc(S(=O)(=O)Nc2nccs2)cc1,-2
NC(=O)Nc1ccc(Cl)cc1,24
CCCCCc1cc(=O)[nH]c(=S)[nH]1,17
COCCn1c(SCC(=O)Nc2ccccc2OC)nc2c(oc3ccccc32)c1=O,-2
O=C(CSc1nnc2ccccn12)N1CCc2ccccc21,6
O=c1c2c(ncn2C2CCCC2)n(Cc2ccccc2)c(=O)n1CCOc1ccccc1,19

# By substructure: the compounds so far with bromine.
smiles,Biofilm kill mix
C=CCNC(=S)Nc1ccc(Br)cc1F,14
CN(CCC#N)C(=O)COc1ccc(Br)cc1Cl,9
O=C(Cc1ccccc1)NNC1CC(=O)N(c2ccc(Br)cc2)C1=O (configuration not stated),19
CCN(Cc1ccncc1)C(=O)c1ccccc1NS(=O)(=O)c1ccc(Br)cc1,26

# Additional results.
smiles,Biofilm kill mix
COc1cc(N2CCCC2)c(OC)cc1/C=C1/NC(=S)NC1=O,-5
Cc1ccc(CC(CC(=O)O)C(=O)NCC23CC4CC(CC(C4)C2)C3)cc1 (configuration not stated),-8
CCc1cccc(CC)c1NC(=S)NCc1ccc2c(c1)OCO2,15
COc1ccc(Oc2cc(C(F)(F)F)nc(N(C)C)n2)cc1,14
COc1ccccc1CN1CCNC(=O)C1CC(=O)NCCOc1cccnc1 (configuration not stated),15
COc1ccccc1-n1cnnc1SCC(=O)NC1CCS(=O)(=O)C1 (configuration not stated),17
COCc1cc(=O)[nH]c(-c2ccccc2)n1,15
c1ccc(-c2nc(N3CCCCC3)nc3ccccc23)cc1,-5
Cc1cc(C)n2nc(C(=O)Nc3ccc(S(=O)(=O)N4CCCC4)cc3)nc2n1,14
COc1ccc(C(=O)NCC(C)C)c(OC)c1,18
COc1ccccc1/C=C1\SC(=S)N(CCC(=O)NC2=NCCS2)C1=O,16
O=[N+]([O-])c1cccc(/C=N/NC2=NS(=O)(=O)c3ccccc32)c1,8
CCCC(=O)N=C1SC2CS(=O)(=O)CC2N1c1ccc(-c2nc3ccc(C)cc3s2)cc1 (configuration not stated),17
COc1cc(CC(=O)Nc2ccc(S(=O)(=O)NC3=NCCCCC3)cc2)cc(OC)c1OC,12
O=C1CC(c2ccc(F)cc2)Sc2nc(C34CC5CC(CC(C5)C3)C4)nn21 (configuration not stated),19
COc1ccc(Cl)cc1NC(=S)NCc1cccs1,7
CC(=O)N1N=C(c2ccc(C)c([N+](=O)[O-])c2)OC1(C)C,24
COc1ccc(C2CC(=O)C(C=NCCN3CCN(C(=S)Nc4ccccc4)CC3)=C(O)C2)cc1OC (configuration not stated),18
CC(C)Oc1ccc(/C(O)=C2/C(=O)C(=O)N(CCN(C)C)C2c2cccs2)cc1 (configuration not stated),7
O=C(CCNS(=O)(=O)c1ccc(Br)s1)NCc1ccccc1Cl,-2
COc1ccc(C[C@H]2CN3C(=NC[C@H]3Cc3ccccc3)N2CCNC(=O)c2ccc(C)c(Br)c2)cc1,15
CCCCN1C(=O)C(=O)N(CC(=O)NC2CCCc3ccccc32)C1=O (configuration not stated),9
Cc1ccc(-n2c(SCC(=O)NCCN3C(=O)CSC3=O)nnc2-c2cccc(C)c2)cc1,14
CCOc1cc(-c2nc(C)c(C(C)=O)n2O)ccc1OCC(=O)Nc1ccccc1,11
Cc1onc(-c2c(F)cccc2Cl)c1C(=O)OCC(=O)c1c(N)n(C)c(=O)n(C)c1=O,9
Cc1cc2nc(/N=C(\N)NC(=O)C(C)C)nc(C)c2cc1C,23
Cc1ccc2oc(=O)c(/C=C(\O)C(C)(C)C)nc2c1,4
CCO[C@@H]1OC(C(=O)NCc2ccccc2)=C[C@H](c2ccc(Br)cc2)[C@H]1CCCO,7
O=C(NCc1ccc2c(c1)OCO2)c1n[nH]c(=O)c2ccccc12,10
Cc1cc(C)c2c(NC(=O)C3CC3)nn(C)c2n1,-16
